AID504770 – E. coli YBA685 growth inhibition, screen for V. cholerae RctB inhibitors | E. coli YBA685 rctB-dependent plasmid, OD600 growth, 3 h; hits give low values | z-score (no concentration beside the values) | 130,000 tested, 0.27% active | AID 504770;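 active = z-score under -2 on both plates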;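 note: wells of about 30 µL received 100 nL stock; score is relative to mean and SD of the test wells; the first replicate is given; strong numbers were not always called active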
CapD inh – blocks the Bacillus anthracis CapD enzyme. 140,000 tested, 0.23% active. z-score (no concentration beside the values). purified CapD enzyme, fluorescence intensity read-out; hits give low values; some hits fall short of the stated cut. AID 492967;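 active = z-score under -4 in either of two replicates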;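 note: stock transfer was 100 nL into about 40 µL; score is relative to mean and spread of the plate; one replicate is shown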
The depositor's hits bear a star; i = inactive; x = no result given; & = joins results of further samples. This is a subset; the hit share may differ from the screen's.

SMILES	AID504770	CapD inh
O=C(Nc1cccc(C(F)(F)F)c1)C(SCCO)c1ccccc1 (stereo not drawn)	0.2	0.27
OC(CN(C1CCCCC1)C1CCCCC1)Cn1c2ccc(Br)cc2c2cc(Br)ccc21 (stereo not drawn)	x	-0.265
CCCn1c(Sc2nnnn2-c2ccccc2)nc2ccccc2c1=O	-0.35	x
FC(F)(F)c1cnc(N2CCNCC2)c(Cl)c1	x	0.68
O=C(NCCO)c1c(Cl)cccc1Cl	0.75	0.05
COc1ccc(Br)cc1C(=O)CCC(=O)O	0.05	1.73
CCCC(NS(=O)(=O)c1ccc(C)cc1)C(=O)O (stereo not drawn)	-0.7	i
O=C(O)c1ccc(OCc2cn3ccccc3n2)cc1	-0.2	x
CCC1SC2=NCCN2C1(O)c1ccc(Cl)cc1 (stereo not drawn)	-0.55	0.165
CNc1nc(OCC#N)nc(N2CCCCC2)n1	1.75	x
O=C(Nc1c2c(nn1-c1ccc(Cl)cc1)CSC2)c1ccc(C(=O)c2ccccc2)cc1	-1	0.77
COC(=O)C1=NN(c2ccc(Br)cc2)C2(Nc3ccccc3S2)S1 (stereo not drawn)	x	-0.05
CCOC(=O)c1cccc(NC(=O)CNC(=O)C2CCCCC2)c1	1.35	0.575
CS(=O)(=O)N(CC(=O)Nc1ccc(S(=O)(=O)N2CCCC2)cc1)c1ccc2c(c1)OCO2	-0.5	0.015
Clc1ncc(CN2CCCc3ccccc32)s1	-0.25	0.095
COc1ccc(-c2cn3cc(Cl)ccc3n2)cc1	x	4.31
O=C(O)CCc1nc2cc(Cl)ccc2n(Cc2ccccc2)c1=O	-0.6	17.8
CC(C)(C)NC(=O)CSc1nc2c(c(-c3cccs3)c1C#N)CCCC2	x	0.63
c1ccc(N=c2scc(-c3cccs3)n2-c2ccccc2)cc1	0.6	-0.02
Cc1ccc(C(CN2CCOCC2)c2nc(-c3ccccc3)nn(CN3CCOCC3)c2=O)cc1 (stereo not drawn)	-0.75	0.345
N#Cc1ccc(COCc2cc3cccc4c3n(c2=O)CCC4)cc1	x	0.395
O=C(Nc1c(C(=O)N2CCCCC2)cnn1-c1ccccc1)c1ccccc1	-0.85	0.12
O=C(CSC1=NCCCCC1)c1ccccc1	-0.8	-0.1
O=C(Nc1ccccc1)N(O)c1ccc(Cl)cc1	-2.35	0.35
Clc1cccc(Oc2ncnc3sccc23)c1Cl	0.8	0.79

Seven entries from above, as a markdown table.
| molecule | AID504770 | CapD inh |
| --- | --- | --- |
| O=C(CSC1=NCCCCC1)c1ccccc1 | -0.8 | -0.1 |
| CCC1SC2=NCCN2C1(O)c1ccc(Cl)cc1 (stereo not drawn) | -0.55 | 0.165 |
| Clc1ncc(CN2CCCc3ccccc32)s1 | -0.25 | 0.095 |
| N#Cc1ccc(COCc2cc3cccc4c3n(c2=O)CCC4)cc1 | x | 0.395 |
| c1ccc(N=c2scc(-c3cccs3)n2-c2ccccc2)cc1 | 0.6 | -0.02 |
| O=C(Nc1c(C(=O)N2CCCCC2)cnn1-c1ccccc1)c1ccccc1 | -0.85 | 0.12 |
| COc1ccc(-c2cn3cc(Cl)ccc3n2)cc1 | x | 4.31 |

Continuation.
SMILES	AID504770	CapD inh
COc1ccc(CCC(C)N)cc1 (stereo not drawn)	0.7	x
Cc1cc(NC(=O)CSCc2ccco2)no1	-0.8	x
CC1(C(=O)O)CC2C=CC1C2 (stereo not drawn)	x	0.05
Cc1ccc2[nH]cc(CCNC(=O)OCCN3CCN(Cc4ccc(Oc5ccccc5)cc4)CC3)c2c1	x	-0.375
CN(C)CC#Cc1cncc(C(=O)NN)c1	0.6	0.15
COc1ccc(CC(=O)Nc2nc(-c3ccccc3)cs2)cc1	1.3	-0.26
O=C(c1ccccc1)c1c(CS(=O)(=O)c2ccc(C(F)(F)F)cn2)[nH]n(-c2ccccc2)c1=O	2.7	0.55
Clc1ccc(Nc2nc(C3CC3)cs2)cc1	-0.45	0.535
CN1c2ccccc2N(Cc2ccccc2)C(=O)C1(C)C	-0.2	-0.05
CCCc1nn(S(=O)(=O)c2ccc(F)cc2F)cc1C(=O)OCC	0.3	0.42
CSc1ccccc1C(=O)NCCN1CCOCC1	-0.05	-0.78
CCOc1ccc(C(=O)N2CCCC2)cc1	0.15	0.615
CC(C)(C)NC(=O)N1CCN(c2nc(-c3ccccc3)ns2)CC1	0.05	0.885
FC(F)(F)c1ccc2cccc(C(F)(F)F)c2n1	-0.15	0.445
O=c1c2ccccc2nc(-c2ccco2)n1-c1ccc(Cl)cc1	-0.6	x
COc1cccc2cc(-c3csc(Nc4ccc(Oc5ccc6ccccc6c5Cl)c(Cl)c4)n3)c(=O)oc12	x	0.2
COc1ccc(-n2c(C)cc(C(=O)COC(=O)Cn3cnc4ccccc43)c2C)cc1	-1.1	x
N#Cc1nc(-c2ccccc2)oc1NCc1ccco1	0.9	42.8
Cc1ccc(S(=O)(=O)N(C)/N=C/c2cccc(Br)c2)cc1	0.1	61.1
COC(=O)c1c(CSC(=N)N)nc2n(Cc3ccccc3)c3ccccc3n12	-0.35	0.1
O=C(CCc1nnc2n(Cc3ccc(F)cc3)c(=O)c3ccccc3n12)NC1CCCCCC1	0.45	0.385
O=C1/C(=C/c2cccs2)N2CCC1CC2	x	-0.975
CON(S(=O)(=O)c1ccccc1)S(=O)(=O)c1ccccc1	0.8	0.205
CCN(CCOC(=O)NNC(=O)c1ccccc1-n1cccc1)c1ccc(N=Nc2ccc([N+](=O)[O-])cc2)cc1	x	-1.69
CN(CC(=O)NC1CCSc2ccccc21)S(=O)(=O)c1ccc(F)cc1 (stereo not drawn)	0.1	x

(further entries)
SMILES	AID504770	CapD inh
Cc1c(C)c(C)c(C(=O)c2ccc([N+](=O)[O-])cc2)c(C)c1C	x	-0.31
C=CCSc1ncc2c(=S)[nH]c(=S)[nH]c2n1	-0.2	-4.64*
COCc1nnc(NC(=O)c2ccc(S(=O)(=O)N(C)C3CCCCC3)cc2)o1	0.25	x
O=C(c1sc2cc(C(F)(F)F)cnc2c1-c1ccccc1)N1CCOCC1	x	-0.535
O=C(Cc1c[nH]c2ccccc12)N/N=C/c1ccc(OCc2ccccc2)c(OCc2ccccc2)c1	x	0.61
COc1ccc(C2/C(=C(/O)c3ccc(F)cc3)C(=O)C(=O)N2c2nccs2)cc1OC (stereo not drawn)	x	-0.44
O=c1c2nnn(-c3cccc(Cl)c3)c2ncn1C/C=C/c1ccccc1	0.65	-0.79
CC(C)CCN1CSC2=C(C#N)C(c3ccc(F)cc3)CC(=O)N2C1 (stereo not drawn)	0.2	-1.31
CC1CN=C(Nc2cccc3ccccc23)S1 (stereo not drawn)	-0.75	0.31
COCCn1c(=NC(=O)CCc2ccccc2)sc2cc(NC(C)=O)ccc21	-2	13.2
COc1ccc(/C=N/NC(=O)c2ccc3ccccc3c2)c2ccccc12	x	1.21
CCCN(CCC)CC(O)CN(c1cccc(C)c1)S(=O)(=O)c1ccccc1 (stereo not drawn)	x	-0.685
CC1CC(C)CN(CCCNc2cnnc3c(Cl)cccc23)C1 (stereo not drawn)	0.55	-1.59
Cc1cccc(Cn2nc(C)c(NC(=O)c3ccncc3)c2C)c1	0.45	-0.13
Cc1ccc2cccc(OCC(=O)N3C(C)CCCC3C)c2n1 (stereo not drawn)	1.6	x
CCNc1nc(NC2CC2)nc(N(C)C#N)n1	-1.3	-0.2
Cc1ccc(N(Cc2ccc(C(=O)O)cc2)S(C)(=O)=O)cc1C	-0.75	0.24
Nc1ccc2oc3ccccc3c2c1	1.2	x
Nc1cc(=O)nc(SCC(=O)Nc2ccccc2)n1-c1ccccc1	-1.3	-0.135
CCn1c(=O)n(CC(=O)Nc2nc3ccccc3s2)c(=O)c2ccccc21	x	-0.75
CCC(Sc1nncn1C)C(=O)Nc1ccc([N+](=O)[O-])cc1 (stereo not drawn)	x	0.32
O=C(NC1CCCC1)c1ccc2ncsc2c1	0.2	x
O=C1c2ccccc2-c2onc3c(Oc4c(F)c(F)c(F)c(F)c4F)cc(Oc4c(F)c(F)c(F)c(F)c4F)c1c23	x	-0.165
Cc1ccccc1Cc1c(C)nc2c(C(=O)N3CCN(Cc4ccc5c(c4)OCO5)CC3)cnn2c1C	x	5.77
CCCC(=O)Nc1nc2ccc(S(=O)(=O)N3CCCCC3)cc2s1	-0.2	-0.97

Reprinted at random: five records from the list
SMILES	AID504770	CapD inh
Clc1ncc(CN2CCCc3ccccc32)s1	-0.25	0.095
CNc1nc(OCC#N)nc(N2CCCCC2)n1	1.75	x
Cc1cc(NC(=O)CSCc2ccco2)no1	-0.8	x
O=C(Nc1c2c(nn1-c1ccc(Cl)cc1)CSC2)c1ccc(C(=O)c2ccccc2)cc1	-1	0.77
CCCC(=O)Nc1nc2ccc(S(=O)(=O)N3CCCCC3)cc2s1	-0.2	-0.97

Other entries:
SMILES	AID504770	CapD inh
N#Cc1c(N)sc2c1CCC2	x	-1.02
CN(C(=O)c1cnccn1)c1c(N)n(Cc2ccccc2)c(=O)[nH]c1=O	-0.1	x
COc1ccc(CCCOC(=O)NCCc2c[nH]c3ccc(OC)cc23)cc1	x	-0.36
CC(C)(C)OC(=O)N1CCc2nc(Nc3ccccc3)ncc2C1	-0.8	0.03
N#Cc1c(NC(=O)c2cnn3c(C(F)(F)F)cc(-c4ccco4)nc23)sc2c1CCCC2	-0.2	x
CC(C)(C)n1nc2c(c1N)CSC2	-1.05	x
CCCCN1C(=O)N(c2nnc(C(C)(C)C)s2)C(O)C1c1ccc(C)cc1 (stereo not drawn)	0	-0.455
Cc1cc(NC(=O)/C(C#N)=C/c2ccc(-c3cccc(C(F)(F)F)c3)o2)n(-c2ccccc2)n1	1.25	x
O=C(COc1ccc(-c2nnc(N3CCCCC3)c3ccccc23)cc1)N1CCCCC1	1.3	0.39
Cc1ccc2c(c1)c1c(n2CC(O)CNCc2ccccc2)C(=O)CCC1 (stereo not drawn)	-1.2	5.4
CCCC(=O)n1nc(NCc2ccccc2)nc1NCc1ccccc1	1.2	-0.43
CCOC(=O)CCc1ccc(OCc2ccccc2)c(I)c1	0.1	1.23
CNC(=O)N(Cc1cccnc1)Cc1cccc(Cl)c1Cl	-0.6	-0.585
Cc1ccc(NC(=O)CSCc2c(C#N)c(C)nn2-c2ccccc2)c(Cl)c1	0.15	x
CCN(CC)C(=O)Cn1nc(C)c(S(=O)(=O)N2CCCCC2)c1C	1.4	x
CCN1C(=O)/C(=C\c2ccc(C(C)C)cc2)SC1=S	1.5	0.28
COC(=O)c1sccc1NC(=O)COCc1cc(-c2cccs2)on1	1.85	-0.905
NC(N)=NS(=O)(=O)c1ccc(N)cc1	-0.15	-0.395&1.04
N#CC(C#N)=Cc1ccc(N2CCCCC2)cc1	0.4	x
Cc1nnc(SCC(=O)NCC2CCCCC2)n(N)c1=O	1.65	x
O=c1oc2ccc(Br)cc2cc1-c1ccc2c(c1)OCCO2	1.1	0.94
NC(=S)N/N=C/CCn1c(=S)sc2ccccc21	1.4	-0.45
COc1ccccc1OCc1ccc(C(=O)NCC(C)C)o1	-0.35	0.475
COc1ccccc1NC(=O)N(CCCC(O)c1ccc(F)cc1)C(C)C (stereo not drawn)	x	-0.715
C/C(=N\NC(=O)c1ccc(Cl)cc1Cl)c1ccc(C)o1	-0.15	x

(more compounds)
SMILES	AID504770	CapD inh
CCn1cc(S(=O)(=O)Nc2cc(C(C)(C)C)on2)cn1	0.05	1.08
Cc1ccccc1C(=O)Nc1cc(C)c2c(=O)oc3ccccc3c2n1	1.95	-0.075
CN(C)c1ccc(C(=O)OCC(=O)C23CC4CC(CC(C4)C2)C3)cc1	-0.35	x
CSc1c(C#N)c(-c2cccs2)nn1CNC(=O)Nc1ccccc1C(F)(F)F	1.5	-0.48
COc1cc(OC)nc(-c2sc3ccccc3c2OCc2noc(C(C)(C)C)n2)n1	x	1.87
CCSc1nnc2n(/N=C/c3cccs3)cnn12	-0.2	-2.16
CCC(CC)=NNC(=O)c1ccc(Cl)cc1	1.25	x
Nc1ccccc1C(=O)NCCc1ccccc1	-0.25	x
Cc1cc(C)c(-c2nnc(NC(=O)CSC3=NCCS3)s2)c(C)c1	1.2	-0.815
Cc1onc(-c2ccccc2)c1N1C(=O)CCN(C(C)C)C1=O	-0.15	0.935
COc1ccc(-n2cc(C(=O)N(C)Cc3ccco3)c3ccccc3c2=O)cc1	0.2	3.02
CC(CNC(=O)c1nnc(-c2ccc3c(c2)OCO3)o1)c1ccccc1 (stereo not drawn)	-0.5	2.17
CCc1nnc(NC(=O)c2ccc(S(=O)(=O)N3CC(C)CC(C)C3)cc2)o1 (stereo not drawn)	0.35	x
CC(=O)c1ccc2c(c1)CCO2	x	0.425
O=C(CCNc1n[nH]c(=O)[nH]c1=O)N1CCCCC1	-0.5	x
Nc1nc(N)nc(CN2CCCC2c2nc3ccccc3s2)n1 (stereo not drawn)	-0.65	x
O=C(CSCc1cc2cccc3c2n(c1=O)CCC3)NC1CCSC1=O (stereo not drawn)	x	2.41
CCOc1cc(/C=c2\sc3nc4cc(C)c(C)cc4n3c2=O)ccc1OCc1ccccc1	x	-0.275
C=C(c1ccccc1)c1ccc(N(C)C)cc1	-0.55	5.08
CC1CCCCN1S(=O)(=O)c1ccc(C(=O)O)cc1 (stereo not drawn)	-0.25	0.455
COc1cc(C)c(NS(C)(=O)=O)cc1C(C)C	-0.8	0.015
N#CCSc1ncccc1C(F)(F)F	0.8	-0.86
CCC1(CC)Cc2ccccc2-c2nc(NN)n(Cc3ccccc3)c(=O)c21	-0.45	x
COc1ccc(-n2nc3c(c2NC(C)=O)CSC3)cc1	0.6	x
CC1(C)Cc2nc(Cl)c(C#N)cc2CO1	x	0.325
O=S(=O)(c1ccccc1)N1CCN(S(=O)(=O)c2ccc(Cl)cc2)CC1	-0.1	0.295
O=S(=O)(Oc1ccc(Oc2ccccc2)cc1)c1ccc(F)cc1	x	-0.005
CC(=O)Oc1ccccc1-c1nc(C)no1	-0.9	x

High-throughput results: PubChem BioAssay, ICCB-Longwood Screening Facility, Harvard Medical School
